Screening results: PubChem BioAssay, Fisher Drug Discovery Resource Center
NPYLR7 agonist: mosquito NPYLR7 agonism. activation, % at 10 µM. 0.15% of 270,000 active. HEK293T NPYLR7/Galpha15, GCaMP6s calcium fluorescence. AID 1259423; in the data active = activation above about 40%;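 note: 0% = vehicle and 100% = reference agonist at the receptor; some compounds past the cut are filed as inactive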
NPYLR7 agonist max-min: also measured in NPYLR7 agonist; calls as there; activation, %; measured here: Max-Min RFU normalised activation; some inactives read as strong as hits;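 span of the calcium signal over five minutes; 0% = vehicle and 100% = native peptide agonist; compound fluorescence can raise it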
* hit, by the source's call; & = joins results of further samples. The list is partial (hit frequency here may not be typical).

SMILES | NPYLR7 agonist | NPYLR7 agonist max-min
O=C(Nc1ccc(N2CCc3ccccc3C2)c(C(=O)NCC2CCCO2)c1)c1cc(C(F)(F)F)cc(C(F)(F)F)c1 (stereo unspecified) | 0 | 5
Cc1cccc(CC(=O)Nc2cnn(-c3cccc(C(=O)NC4CCOC(C)(C)C4)c3)c2)c1 (stereo unspecified) | 8 | 0
COCCn1c(SC(C)C(=O)OC)nc2sc3c(c2c1=O)CCC3 (stereo unspecified) | 14 | 10
CCN(C(=O)Cn1nc(C(=O)N2CCN(C)CC2)cc1C)c1ccccc1C | -6 | -9
CCOC(=O)c1c(NC(=O)C(C)(C)C)sc(C(=O)Nc2ccc(OC)cc2)c1C | -6 | -12
O=C1COCc2ccc(-c3ccccc3)cc2N1CC1CC1 | 7 | 4
C=CCOc1cccc(C(=O)N2CCCC(CNS(=O)(=O)c3cccs3)C2)c1 (stereo unspecified) | 6 | 5
O=C(CSc1nnc(NC2CC2)s1)Nc1ccc(Cl)cc1 | -1 | -4
O=C1C2C3C=CC(C3)C2C(=O)N1c1ccc(C(=O)N(C2CCCCC2)C2CCCCC2)cc1 (stereo unspecified) | -10 | -12
O=C(Cn1c(=O)cnc2ccccc21)NC12CC3CC(CC(C3)C1)C2 | 5 | 3
CC1CCC(NS(=O)(=O)c2ccc3c(c2)CCO3)CC1 (stereo unspecified) | 4 | 0
Cc1nc2c(s1)C(N(C)C(=O)c1cn[nH]c1C)CCC2 (stereo unspecified) | 4 | 7
CN1CCN(c2ncnc3c2cnn3Cc2ccccc2)CC1 | 2 | 1
O=[N+]([O-])c1ccc(-c2cnc[nH]2)cc1 | 0 | -5
COc1ccc(CCNC(=O)c2cc3c(C)nn(CC(C)C)c3s2)cc1OC | 10 | 11
COc1ccc(N2CCN(C(=O)c3ccc([N+](=O)[O-])cc3)C(C)C2=O)c(OC)c1 (stereo unspecified) | 5 | 5
Cn1c(=O)c(Cl)c2c3c(c(Br)ccc31)C(=O)c1ccccc1-2 | -2 | -11
Cc1ccc2nc(-c3ccc(NC(=O)CN4CCN(C)CC4)cc3)sc2c1 | 9 | 5
COC(=O)C1=C(C)NC2=C(C(=O)CC(c3ccccc3)C2)C1c1ccc(OC)cc1OC (stereo unspecified) | 4 | 14
COc1ccc(C(C)NCC(O)COc2ccc(Cl)cc2Cl)cc1F (stereo unspecified) | 6 | 2
O=C(OCc1nnc(-c2ccccc2)o1)c1ccc(Cl)cc1 | -3 | -7
CC(C)(C(=O)N1CCC1(C)C(=O)Nc1cccc2c1CCCC2)c1ccccc1 (stereo unspecified) | 10 | 10
O=C(c1cccc(C(F)(F)F)c1)C1CCCN(Cc2cccc3nccnc23)C1 (stereo unspecified) | 5 | 4
Cc1ccc(-c2cc(C(=O)Nc3ccc(F)c([N+](=O)[O-])c3)c3ccccc3n2)cc1 | 17 | 1
CO[C@H]1COC[C@@H]1NC(=O)c1coc(COc2ccc3sc(C)nc3c2)n1 | 5 | -4
O=C(NCc1cccs1)c1cccnc1N1CCN(C(=O)NCCc2ccccc2F)CC1 | 2 | -6
CCCCC(CC)C(=O)N1CCN(c2nccc(-c3cccc(C(F)(F)F)c3)n2)CC1 (stereo unspecified) | 6 | 4
COc1ccc2c(Cl)c(C(=O)NNC(=O)COc3ccc([N+](=O)[O-])cc3)sc2c1 | 3 | 0
CC(C)(C)C(=O)NCC(=O)Nc1ncc(Cc2ccc(Cl)cc2)s1 | 5 | 2
COc1ccc(/C=N\N=C/c2c[nH]c(=O)c(C#N)c2Nc2ccccc2)cc1 | 3 | 3
O=C(NCC1CCCO1)c1coc(CN(Cc2ccccc2)Cc2ccc(Cl)cc2Cl)n1 (stereo unspecified) | 2 | 11
COc1nn(C)c2nc(C)c(CCC(=O)Nc3ccc(C)cc3C)c(C)c12 | 4 | 2
CC(C)(Oc1ccc(F)cc1)C(=O)OC1CC(=O)N(CC(N)=O)C1 (stereo unspecified) | 1 | 1
CN(C)CCN(C)C1CCCN(C(=O)CCn2cc(Cl)cn2)C1 (stereo unspecified) | 5 | -4
O=C(c1ccc2c(c1)OCO2)N1CCCC(N2CCN(c3cccc(Cl)c3)CC2)C1 (stereo unspecified) | 7 | 8
CN(C)CCN(C(=O)CN(C)S(=O)(=O)c1ccccc1)c1ccccc1 | -3 | -2
CCNC(=O)C1(C)CCN1Cc1ccc(-c2ccccn2)cc1 (stereo unspecified) | 6 | 3
Cn1c(=O)oc2cc(S(=O)(=O)N3CCCC3)ccc21 | 2 | 1
N#CCCN(CC1CCC1)C(=O)CCOc1ccccc1Cl | 2 | 1
COc1cccc(NC(=O)CCC2CCN(Cc3nc4ccccc4s3)CC2)c1 | 10 | 11

Next part, starting with the last 2 of the part before.
SMILES | NPYLR7 agonist | NPYLR7 agonist max-min
N#CCCN(CC1CCC1)C(=O)CCOc1ccccc1Cl | 2 | 1
COc1cccc(NC(=O)CCC2CCN(Cc3nc4ccccc4s3)CC2)c1 | 10 | 11
CCCS(=O)(=O)NCC1CCN(C2CC(C)(C)NC(C)(C)C2)C1 (stereo unspecified) | 2 | 0
Cc1nc(CCCNc2nc(N(C)C)cc(C(F)(F)F)n2)n[nH]1 | 1 | -3
O=C1OC(c2ccc(-c3ccccc3)cc2)=N/C1=C\C(Cl)=C\c1ccccc1 | -1 | -6
CC(C)[C@@H]1C[C@@H]2C[C@H](N(CC(=O)O)C(=O)c3csc(-c4cccs4)n3)C[C@@H]2CO1 | -2 | 9
CC(C)Cn1cncc1CNS(=O)(=O)NCc1ccccc1 | -1 | -7
CCCCC(=O)N(C)c1c(C)nc2ccc(C(=O)NCCOc3ccc(OC)cc3)cn12 | -1 | -10
COc1cn2c(cc1=O)C(=O)N(CCNC(=O)CCC1CCCCC1)CC2 | 15 | 10
CC(=O)C(Cc1cccc(Cl)c1)C(=O)Nc1ccc(C)c(C)c1 (stereo unspecified) | -7 | -8
O=C(c1cccc(-c2ncc[nH]2)c1)N1CCC2(CCCO2)CC1 | 10 | 7
O=C(CCl)N1CCc2ccccc21 | 8 | 3
CCCCCN(C(=O)c1ccccc1Cl)C(C)c1nc2cc(Cl)ccc2c(=O)n1-c1ccc(OC)cc1 (stereo unspecified) | 17 | 16
NC(=O)c1ccccc1OCC(=O)N(Cc1ccc(F)cc1)C12CC3CC(CC(C3)C1)C2 | 4 | 3
O=C(NCC1CC1)C1CCCN(CCCc2nnnn2-c2ccccc2)C1 (stereo unspecified) | 14 | 10
CCCN(Cc1nc2cc(Cl)ccc2c(=O)[nH]1)C(=O)COc1ccccc1F | -3 | 1
CCONC(=O)CSCc1ccc(C)cc1 | 2 | 1
O=C(NC1CCCCCC1)c1cc2c(=O)n3ccccc3nc2s1 | 10 | 5
c1cc(-c2cc(C3CCN(Cc4cncnc4)C3)ccn2)ccn1 (stereo unspecified) | -6 | -7
CCOC(=O)C1(CCCc2ccccc2)CCN(C(=O)Cn2nc3ccccc3n2)CC1 | 5 | 0
O=c1[nH]nc(-c2ccn[nH]2)n1Cc1ccccc1 | 10 | 4
O=C(Nc1ccc(N2CCc3ccccc3C2)c(C(=O)N2CCCC2)c1)c1cc(C(F)(F)F)cc(C(F)(F)F)c1 | 20 | 27
Cn1c(Cn2c(=O)sc3ccccc32)nnc1SC/C=C/c1ccccc1 | 4 | 5
Cc1ccc(C2(O)CCN(C(=O)c3cccc(S(C)(=O)=O)c3)CC2)nc1 | -3 | 2
COc1ccc(-n2ccc(C(=O)NC3(C)CCC(C)CC3)n2)cc1 (stereo unspecified) | 0&4 | 2&2
O=C(O)COc1ccccc1-c1nc(-c2ccccc2)c(-c2ccccc2)[nH]1 | 11 | 11
COc1cc(OC)cc(C(=O)N2CCN(c3nc(C4CCOCC4)nc4c3cnn4-c3ccccc3)CC2)c1 | -9 | 3
Cc1cc2c(cc3c(=O)n(CC(=O)NCC4CCCO4)ncn32)s1 (stereo unspecified) | 7 | 7
CNc1nnc(SCC(=O)c2cccc(Cl)c2)s1 | 14 | 8
Cc1ccc(N2CCC(SCc3nc(C4CC4)no3)C2=O)cc1 (stereo unspecified) | 5 | 3
Cc1cc(NC(=O)CN(C)C(=O)Cn2ncc(=O)c3ccccc32)no1 | 6 | 5
CC(CCc1ccccc1)NC(=O)c1cncn1-c1cccc(-c2cccc3c2sc2ccccc23)c1 (stereo unspecified) | 10 | 3
CCC(C(=O)NCc1cccnc1)n1cc(C(C)=O)c2ccccc21 (stereo unspecified) | 13 | -3
Cc1cn2c3c(=O)n(Cc4ccccc4Cl)c(=O)n(C)c3nc2n1CC1CCCO1 (stereo unspecified) | 0 | 4
O=C(c1cncnc1)N1CCC2(CC1)N=CC1(CCCCC1)S2 | 23 | 13
Cc1cc(C)c2c(n1)nn1c(N3CCN(CCOc4ccc(Cl)cc4)CC3)cc(C)nc21 | 0 | 14
Cc1cc(Nc2ccc(N(C)C)cc2)c2ccc(C(F)(F)F)cc2n1 | -4 | -6
CC1(C)Cc2c(c(N3CCOCC3)nc3sc4c(N5CCOCC5)ncnc4c23)CO1 | 0 | -3
CC(=O)Nc1ccnn1CC1=CCCN(C2C=CCCC2)C1 (stereo unspecified) | 0 | -5
CC1CN(CC2CCCN2S(=O)(=O)c2ccc(F)cc2Br)CC(C)O1 (stereo unspecified) | 1 | 2
CC1=NC2=C(C(=O)CCC2)C(c2ccc(O)cc2)C1C(=O)OCCOc1ccccc1 (stereo unspecified) | -7 | -13
Nc1nccnc1C(=O)NCC1(c2ccc(F)cc2)CCCC1 | 0 | -2

Profiles, looked up by structure. Values in the order: NPYLR7 agonist | NPYLR7 agonist max-min
CC(=O)Nc1ccnn1CC1=CCCN(C2C=CCCC2)C1 (stereo unspecified) is entered as 0 | -5
CNc1nnc(SCC(=O)c2cccc(Cl)c2)s1 is entered as 14 | 8
CC(CCc1ccccc1)NC(=O)c1cncn1-c1cccc(-c2cccc3c2sc2ccccc23)c1 (stereo unspecified) is entered as 10 | 3
O=C(O)COc1ccccc1-c1nc(-c2ccccc2)c(-c2ccccc2)[nH]1 is entered as 11 | 11

Taken from the results shown for reference:
SMILES | NPYLR7 agonist | NPYLR7 agonist max-min
CC1=NC2=C(C(=O)CCC2)C(c2ccc(O)cc2)C1C(=O)OCCOc1ccccc1 (stereo unspecified) | -7 | -13
Nc1nccnc1C(=O)NCC1(c2ccc(F)cc2)CCCC1 | 0 | -2

Additional results:
SMILES | NPYLR7 agonist | NPYLR7 agonist max-min
CC(=O)N1CCc2cc(C(=O)NC(c3cccs3)C(C)(C)C)ccc21 (stereo unspecified) | 6 | 1
CCC(CC)N(CC(C)C)C(=O)c1cccc(NC(=O)OC)c1 | 1 | 1
CCOc1ccc(C(C2Sc3nc(C)nn3C2=O)N2CCOCC2)cc1 (stereo unspecified) | 0 | -1
CCOC(=O)C1=C(C)NC2=C(C(=O)CC(c3ccc(Cl)cc3)C2)C1c1ccc(N(C)C)cc1 (stereo unspecified) | -5 | -6
CCc1ccc(-n2nnc(C(=O)Nc3nccs3)c2C)cc1 | -2 | -7
CC(C)c1cc(NC(=O)CCNC(=O)c2ccc(Cl)cc2)n[nH]1 | 1 | 0
COc1cc(NC(=O)CSc2nc(=O)n(CCCN(C)C)c3c2CCC3)cc(OC)c1 | 7 | 17
OCCC1CN(Cc2cn[nH]c2-c2ccc(F)cc2)CCN1Cc1ccccc1F (stereo unspecified) | -5 | -6
CN1CC(=O)N2CCN(Cc3cc(C#CCO)cs3)CC2C1=O (stereo unspecified) | 26 | 10
O=C(CCCc1cccs1)Nc1cc2ccccc2c(=O)[nH]1 | -6 | -7
Cc1ccc(CNC(=O)C2CCCN(c3cnc4ccccc4n3)C2)cc1 (stereo unspecified) | 3 | 0
CCCOCCN1CCN(c2ncc(C)c(N(C)C)n2)CC1 | 7 | 7
COc1cccc(C2SCCN2C(=O)Nc2ccc(Cl)cc2)c1OC (stereo unspecified) | 0 | -1
COc1ccc2c(c1)C(=O)/C(=C\c1csnn1)O2 | -9 | 252
CC(C)(C)c1ccc(C2SCC(=O)N2CCC(=O)O)cc1 (stereo unspecified) | 0 | -4
O=C(C1CCN(c2ccccc2)C1=O)N1CCN(c2nc3ccccc3s2)CC1 (stereo unspecified) | -2 | -9
C=CCn1c(=O)c2c(nc3n(-c4ccc(C)c(C)c4)c(C)c(C)n23)n(C)c1=O | -2 | -1
Cc1cccc(CSC2=NCCN2S(=O)(=O)c2ccc([N+](=O)[O-])cc2)c1 | 9 | 9
O=C(Cc1ccccc1F)Nc1ccc2c(c1)CN(C(=O)C1=CCCC1)CC2 | 3 | -1
COCC1CCN(Cc2cc3ccc(OC)cc3[nH]c2=O)C1 (stereo unspecified) | 4 | 2
CCOC(=O)N1CCN(Cc2nc(N3CCCCCC3)c3ccccc3n2)CC1 | -9 | -10

Six entries from above, with tabs:
compound	NPYLR7 agonist	NPYLR7 agonist max-min
O=C(O)COc1ccccc1-c1nc(-c2ccccc2)c(-c2ccccc2)[nH]1	11	11
CC1CN(CC2CCCN2S(=O)(=O)c2ccc(F)cc2Br)CC(C)O1 (stereo unspecified)	1	2
Cc1cn2c3c(=O)n(Cc4ccccc4Cl)c(=O)n(C)c3nc2n1CC1CCCO1 (stereo unspecified)	0	4
CCOc1ccc(C(C2Sc3nc(C)nn3C2=O)N2CCOCC2)cc1 (stereo unspecified)	0	-1
Cc1ccc(-c2cc(C(=O)Nc3ccc(F)c([N+](=O)[O-])c3)c3ccccc3n2)cc1	17	1
COc1ccc2c(c1)C(=O)/C(=C\c1csnn1)O2	-9	252
